VACV Venus inh: vaccinia inhibition (Venus reporter); 0.46% of 330,000 active; Potency, µM (series often up to 36.5 µM), for inactives: top-dose activity change, negative = inhibition, usual class: inhibitors; Vaccinia virus Venus reporter expression, fluorescence; active means well fitted inhibition curve with a large enough effect; inconclusive means small, poorly fitted or top-dose-only effect; inactive means no such curve, though single readings can be large or run the other way; tested in A549 cells; note: nearly all actives have a fitted effect of over 30% in size; inactives centre near -10
VACV mCherry inh: vaccinia inhibition (mCherry reporter). Vaccinia virus mCherry reporter infection, fluorescence; about a quarter of the inactives have no number. Potency, µM (doses to about 36.5 µM), for the others: at the top dose activity change, negative = inhibition, hits mostly inhibitors. 0.63% of 310,000 active. AID 720579; active = well fitted inhibition curve with a large enough effect; inconclusive = small, poorly fitted or top-dose-only effect; inactive = no such curve, though single readings can be large or run the other way; tested in A549 cells; note: nearly all actives have a fitted effect of over 35% in size; inactives centre near -10
The depositor's hits bear a star; i = inactive; ? = inconclusive; · = no result given; & = joins results of further samples; [ ] = another dose, or the depositor's remark. % is set by controls: 0 for no effect and ±100 for the full control effect; potency is the fitted concentration of half-maximal effect. Rows were taken by chance; any-hit rate near 0.82%.

SMILES	VACV Venus inh	VACV mCherry inh
CC(C)c1nnc(NC(=O)CCS(=O)(=O)c2ccccc2)s1	-24%	?
COC(=O)c1nnn(CC(=O)NC(=O)Nc2c(C)cccc2C)c1C(=O)OC	-1%&-11%	10%&-11%
Fc1cc(F)cc(-c2c(-c3ccccc3)ncc3ccc(F)cc23)c1	-15%	-29%
C=CCOc1ccc(/C=C2\SC(=S)N(NS(=O)(=O)c3ccc(C)cc3)C2=O)cc1	1%	i
CCCC(c1nnnn1CS(=O)(=O)c1ccc(C)cc1)N1CCN(c2ccc(F)cc2)CC1 (configuration not stated)	-14%	i
Cc1nn(-c2ccccc2)c(C)c1/C=C/C(=O)OCC(=O)N(C)C1CCS(=O)(=O)C1 (configuration not stated)	-17%	-7%
CCN(C(=O)CSc1ccc2ccccc2n1)C1CCCCC1	-20%	-5%
O=C(NNC(=S)Nc1ccccc1Cl)c1ccncc1	-1%[7.34 µM]	-2%[7.34 µM]
COc1ccc(-c2nc(CSCC(=O)N3CCC(C(N)=O)CC3)c(C)o2)cc1OC	-8%	-20%
c1ccc(-c2csc(NC3CCCCC3)n2)cc1	-10%	-26%
COc1ccccc1C(=O)NC(C(=O)NCCc1nc2ccccc2[nH]1)=C(C)C	-12%	-11%
Cc1cccc(NC(=O)c2ccc3c(=O)n(CC4CCCO4)c(=S)[nH]c3c2)c1 (configuration not stated)	-14%	i

A different layout for some results above.
> Fc1cc(F)cc(-c2c(-c3ccccc3)ncc3ccc(F)cc23)c1
  VACV Venus inh: -15%
  VACV mCherry inh: -29%

> C=CCOc1ccc(/C=C2\SC(=S)N(NS(=O)(=O)c3ccc(C)cc3)C2=O)cc1
  VACV Venus inh: 1%
  VACV mCherry inh: i

> CCCC(c1nnnn1CS(=O)(=O)c1ccc(C)cc1)N1CCN(c2ccc(F)cc2)CC1 (configuration not stated)
  VACV Venus inh: -14%
  VACV mCherry inh: i

> Cc1nn(-c2ccccc2)c(C)c1/C=C/C(=O)OCC(=O)N(C)C1CCS(=O)(=O)C1 (configuration not stated)
  VACV Venus inh: -17%
  VACV mCherry inh: -7%

Going on with the list:
SMILES	VACV Venus inh	VACV mCherry inh
COc1ccc(OCc2cc(C(=O)N3CCCC(CO)C3)no2)c2ccccc12 (configuration not stated)	-10%	-1%
Cc1ncc(CCl)c2c1OC(C)(C)OC2	-14%	-19%
O=C(NCc1cccnc1)c1nn(-c2ccc(Cl)cc2)nc1CO	-11%	-3%
Cc1cc(C(=O)NCC2CCC3(CCN(Cc4ccccc4C)CC3)O2)n(C)n1 (configuration not stated)	-11%	-4%
COc1ccc(NC(=O)c2oc3ccccc3c2NC(=O)Cc2ccc(F)cc2)c(OC)c1	-13%	-14%
CCCNc1cc(=S)nc(N)[nH]1	-17%	-25%
COC(=O)c1c(NC(=O)Cn2cc([N+](=O)[O-])cn2)sc2c1CCC2	-8%	·
O=C(COC(=O)c1ccccn1)Nc1nc(-c2cccc([N+](=O)[O-])c2)cs1	-7%	-14%
COc1ccc(S(=O)(=O)NCCS(=O)(=O)N2CCN(c3ccccc3F)CC2)cc1	-15%	i
CCOC(=O)c1c(NC(=O)/C=C/C(=O)O)sc(C)c1-c1ccc(F)cc1	-27%	-24%
O=C(O)c1cnn2c(-c3ccccc3)ccnc12	-2%	i
N#CC1CCN(c2ncccc2[N+](=O)[O-])CC1	0%	-25%
COc1ccc(OC)c(/C=N/Nc2nc(C)cc(=O)[nH]2)c1	-16%	-11%
O=S(=O)(N/N=C1/CCCc2ccccc21)c1ccc(Br)cc1	-1%	-12%
CCOC(=O)C(=Nc1ccc(Cl)cc1)NO	-15%	-9%
Cc1ccc(S(=O)(=O)N2CCC(C(=O)NCC3CC3)CC2)cc1	0%	-8%
CC(C)Oc1ccc(N2C(=O)c3ccccc3C2=O)cc1	-16%	i
Cc1ccc(C)c(SCc2noc(C(=O)NC(C)C)c2C(=O)O)c1	-5%	i
Cc1cccc(C(=O)Nc2ccc3c(c2)C(=O)N(CC(C)C)C3=O)c1	-17%	i
C#CCOCCOCCOCCNc1nc(N2CCN(C(=O)CCCCCCCCCCNC(=O)Cn3cc(CCCCCN)nn3)CC2)nc(N2CCN(C(=O)CCCCCCCCCCNC(=O)[C@H](CO)n3cc(CCCSC)nn3)CC2)n1	10µM*	-22%
O=C(NC(NCc1cccnc1)C(Cl)(Cl)Cl)c1cccc2ccccc12 (configuration not stated)	-17%	-21%
Cc1nc2ccccc2n1CCC(=O)Nc1cccc(F)c1	1%	·
O=C(CSc1nncs1)Nc1ccc(S(=O)(=O)N2CCCC2)cc1	-12%	i
O=C(NCC1CC1)c1ccc2nc(-c3ccoc3)c(-c3ccoc3)nc2c1	-14%	19%

The last three entries of the part before are carried over, then new ones follow.
SMILES	VACV Venus inh	VACV mCherry inh
Cc1nc2ccccc2n1CCC(=O)Nc1cccc(F)c1	1%	·
O=C(CSc1nncs1)Nc1ccc(S(=O)(=O)N2CCCC2)cc1	-12%	i
O=C(NCC1CC1)c1ccc2nc(-c3ccoc3)c(-c3ccoc3)nc2c1	-14%	19%
COCCCNC(=O)Cn1c(=O)nc(-c2ccccc2)c2ccccc21	-4%	-11%
Cn1nc(NC(=O)C(F)(F)F)c2nccnc21	-8%	-14%
CCOc1ccc(S(=O)(=O)Nc2cccc(C)c2)c2cccnc12	-13%&-20%	-10%
O=C(NCc1ccco1)c1cc2c(s1)CCCCC2	-25%	?
COc1ccc(N2CCN(C(=O)c3c4c(nc5ccccc35)C(=O)N(C3CCCCC3)C4)CC2)cc1	-8%	-17%
COc1ccccc1-n1cnnc1SCC(=O)Nc1cc(C(C)(C)C)nn1-c1ccccc1	-26%	-28%
C=C(C)CSCc1nc2ccccc2[nH]1	-4%	·
CCCCCN(C(=O)CCC(=O)OCc1cccc(C(F)(F)F)c1)c1c(N)n(CCCC)c(=O)[nH]c1=O	-18%	-4%
CSCCC(NC(=O)c1cc(S(=O)(=O)N2CCOCC2)ccc1F)c1nc2ccccc2[nH]1 (configuration not stated)	-6%	i
O=C(Nc1nccs1)c1cccc(NC(=O)c2ccco2)c1	-10%	·
C/C(=N\OCc1ccccc1)c1c(O)cc(C(C)C)n(-c2ccccc2)c1=O	1%	-5%
COCCNC(=S)NN=C1CCCCC1	1%	i

Four entries from above, arranged by heavy-atom count, high to low:
SMILES	VACV Venus inh	VACV mCherry inh
C#CCOCCOCCOCCNc1nc(N2CCN(C(=O)CCCCCCCCCCNC(=O)Cn3cc(CCCCCN)nn3)CC2)nc(N2CCN(C(=O)CCCCCCCCCCNC(=O)[C@H](CO)n3cc(CCCSC)nn3)CC2)n1	10µM*	-22%
CCCCCN(C(=O)CCC(=O)OCc1cccc(C(F)(F)F)c1)c1c(N)n(CCCC)c(=O)[nH]c1=O	-18%	-4%
Cc1ccc(C)c(SCc2noc(C(=O)NC(C)C)c2C(=O)O)c1	-5%	i
N#CC1CCN(c2ncccc2[N+](=O)[O-])CC1	0%	-25%

(list continues)
SMILES	VACV Venus inh	VACV mCherry inh
CCSc1nnc(NC(=O)CSc2nnc(-c3c[nH]c4ccccc34)n2C)s1	-11%	-29%
O=S(=O)(c1ccc(Br)cc1)N1CCN(c2nc(-c3cccs3)nc3ccccc23)CC1	-15%	-13%
CC1(c2nnnn2Cc2ccccc2)CCC(=O)N1c1ccc(N2CCOCC2)cc1 (configuration not stated)	11%	24%
O=C1Nc2ccc(S(=O)(=O)N3CCCC3)c3cccc1c23	-9%	i
Cc1ccccc1C(c1c(C)n(C)n(-c2ccccc2)c1=O)c1c(C)n(C)n(-c2ccccc2)c1=O	18%	5%
CN1CCN(C(=O)COc2ccc(C(C)(C)C)cc2Br)CC1	-10%	-16%
Cc1c2c(nc3nnnn13)CCCC2	-10%	-7%
Cc1nc2c3ccccc3nc(NNC(=O)CCC(=O)NC3CCCC3)n2n1	4%	i
CC(=O)c1ccc(OCC(=O)Nc2ccc3c(c2)CCC3)cc1	1%	-5%
Cc1ccc2cc(CN(CCN(C)C)C(=O)Nc3ccc(Cl)cc3)c(=O)[nH]c2c1	-14%	-25%
CC(C)CN(C(=O)COC(=O)CSc1ccc([N+](=O)[O-])cc1)C1CCS(=O)(=O)C1 (configuration not stated)	-9%	0%
Cc1ccccc1S(=O)(=O)N1[C@@H](c2cccc(Cl)c2)C(C(=O)O)=CC[C@H]1c1ccc(Cl)cc1	-25%	i
O=[N+]([O-])CCO	-8%	-11%
CN(CCOc1ccccc1)C(=O)c1cc(S(=O)(=O)N2CCOCC2)ccc1Cl	-23%	-7%
COCCNC(=O)c1cccc2c1C(=O)c1ccc(N3CCOCC3)cc1S2(=O)=O	-4%	i
CCC(C)n1c(C)cc(=O)n1C(C)CC (configuration not stated)	-3%	i
COc1ccc(CNC(=O)C[C@H]2C[C@H](C(=O)N3CCCCC3)[C@@]3(C)c4[nH]c5ccc(Cl)cc5c4CCN3C2=O)cc1OC	-14%	-17%
CCC(NC(=O)c1ccccc1NC(=O)C(C)(C)C)C(=O)N1CC(C)OC(C)C1 (configuration not stated)	-2%	-20%
Cn1c(C2CCCCC2)nc2ccccc21	-29%	-24%
O=C(C1CCC(=O)N1Cc1ccccc1Cl)N1CCC2(CC1)OCCO2 (configuration not stated)	-15%	-11%
CC(C)(C)c1ccccc1NC(=O)N1CCNC(=O)C1CC(=O)Nc1ccc(F)cc1 (configuration not stated)	-16%	-12%
O=C(O)CCc1ccc(-c2ccccc2)n1Cc1ccco1	2%	-11%
O=C(COc1ccc(F)cc1Br)NCc1nnc2ccccn12	-12%	-17%
COc1ccc(Cn2c(N)c(S(=O)(=O)c3cccs3)c3nc4ccccc4nc32)cc1	-12%	-11%
CCc1nn(C(C)C(=O)N2CCN(c3cccc(C(F)(F)F)c3)CC2)c(=O)c2cc3occc3n12 (configuration not stated)	-11%	-7%
O=C(CCc1ccccc1)N1CCN(c2ccccn2)CC1	6%	-7%
COC(=O)c1sccc1NC(=O)Nc1ccccc1F	-12%	i
CCOCCCNc1nc(C)nc2c1nnn2Cc1c(F)cccc1Cl	-14%	i
COC(=O)c1c(NC(=O)C2=COCCO2)sc(C)c1C	-22%	-12%
CC(=O)N1CCC(C(=O)Nc2ccccc2)(N(Cc2ccccc2)C(=O)c2cccnc2)CC1	-15%	·
N#C/C(=C\c1cccs1)C(=O)NCC1CCCO1 (configuration not stated)	-14%	-14%
O=C1Cc2cc(S(=O)(=O)NCc3ccc(F)cc3)ccc2N1	-5%	i
O=C(COC(=O)CNC(=O)c1ccccc1)NCCc1ccccc1	0%	i
Cc1ccc2c(Cl)cc(Cl)c(OCC(=O)Nc3cccc(S(N)(=O)=O)c3)c2n1	-30%	-14%
N#Cc1cc2cc3c(cc2nc1N1CCOCC1)OCO3	-16%	-20%
COc1ccc(-c2csc(NC(=O)c3cc(C)oc3C)n2)cc1OC	-17%	-1%

Whole records, looked up by structure. Values in the order: VACV Venus inh	VACV mCherry inh
CCc1nn(C(C)C(=O)N2CCN(c3cccc(C(F)(F)F)c3)CC2)c(=O)c2cc3occc3n12 (configuration not stated) is entered as -11%	-7%
COC(=O)c1sccc1NC(=O)Nc1ccccc1F is entered as -12%	i
COC(=O)c1c(NC(=O)C2=COCCO2)sc(C)c1C is entered as -22%	-12%
Cc1ccc2c(Cl)cc(Cl)c(OCC(=O)Nc3cccc(S(N)(=O)=O)c3)c2n1 is entered as -30%	-14%
O=C(CCc1ccccc1)N1CCN(c2ccccn2)CC1 is entered as 6%	-7%

The listing continues.
SMILES	VACV Venus inh	VACV mCherry inh
Cc1cc(N)c(C)c([N+](=O)[O-])c1C	-10%	?
Cc1cccc(C)c1N1CCN(c2cc(Cl)nc(N)n2)CC1	-12%	-7%
CCOc1ccccc1-n1c(SCC(=O)NC2CCCC2)nnc1-c1ccoc1C	-9%	-15%
CS(=O)(=O)N(CCc1ccccc1)CC(=O)NCc1ccccn1	-6%	i
CCn1c(SCC(=O)NCCc2ccccc2)nc2sc3c(c2c1=O)CCN(C)C3	-5%	i
N#CC(C(=O)c1ccc(S(=O)(=O)N2CCCCCC2)cc1)c1nc2ccccc2[nH]1 (configuration not stated)	-10%	i
Cc1cc(C)c(S(=O)(=O)NCC(c2ccco2)N2CCN(c3ccccc3)CC2)c(C)c1 (configuration not stated)	-17%	-7%
Cc1ccc2nc(-c3ccc(Cl)cc3)c(Cc3ccccc3C(F)(F)F)n2c1	-12%	13%
